# Bioassay records as filed in PubChem.
# GLA inh pH 4.5 = qHTS Assay for Inhibitors of Human alpha-Galactosidase at pH 4.5. purified enzyme, 4-MU-alpha-Gal fluorescence, pH 4.5. activity change, negative = inhibition, % at 105 µM. 230,000 tested, under 10 active. Alpha-galactosidase A (Homo sapiens), P06280. AID 1467, 2008; inconclusive = small, poorly fitted or top-dose-only inhibition, or a rising curve; inactive = flat fitted curve, though single readings scatter; no compound was filed as active;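 further: 0% = full activity with enzyme and -100% = basal without enzyme; dose as in the result columns while the protocol names 77 µM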
# Target sequence (P06280 whole entry, looked up): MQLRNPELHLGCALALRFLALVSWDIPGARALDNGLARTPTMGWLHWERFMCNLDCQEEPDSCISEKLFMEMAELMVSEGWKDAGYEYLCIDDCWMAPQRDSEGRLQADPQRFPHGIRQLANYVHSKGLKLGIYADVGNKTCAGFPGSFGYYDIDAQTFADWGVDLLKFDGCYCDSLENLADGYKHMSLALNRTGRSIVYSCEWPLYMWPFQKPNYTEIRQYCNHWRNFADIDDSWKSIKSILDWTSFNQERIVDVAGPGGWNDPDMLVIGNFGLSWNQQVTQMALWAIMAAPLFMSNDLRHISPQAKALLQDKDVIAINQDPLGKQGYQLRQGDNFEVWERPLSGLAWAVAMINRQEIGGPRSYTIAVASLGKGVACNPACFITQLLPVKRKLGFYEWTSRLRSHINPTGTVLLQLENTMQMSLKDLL
# Rango-impB inh = qHTS Assay for Inhibitors of Rango (Ran-regulated importin-beta cargo) - Importin beta complex formation | Potency, µM (doses to about 92.2 µM), for inactives: at the top dose inhibition of complex formation | 0.031% of 340,000 active | Rango CFP/YFP FRET sensor + importin beta, 45 min | AID 540263, 2011 | Importin subunit beta-1 (Homo sapiens), Q14974; active = rising FRET ratio curve, often small or poorly fitted; inconclusive = mostly compound fluorescence or quenching in the first reads; inactive = flat curves in all reads;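 further: potency means the concentration at half of the fitted maximal effect; 0% = DMSO wells and 100% = buffer wells lacking importin beta; nearly all actives have a fitted effect of over 15% in size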
#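 Inhibition scored from the CFP 486 nm/YFP 530 nm FRET ratio 45 min after adding 0.125 microM importin beta to 50 nM Rango biosensor preincubated 5 min with compound (room temperature, PBS with DTT, Tween-20, BSA). No-importin wells as positive control.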
# Rango dissoc inh = qHTS Assay for Inhibitors of RanGTP induced Rango (Ran-regulated importin-beta cargo) - Importin beta complex dissociation; Potency, µM (highest dose often 46.1 µM), without a hit: at the top dose activity change, negative = inhibition; Biochemical FRET Rango-importin beta, RanGTP-induced dissociation; 0.071% of 340,000 active; Snurportin-1 (Homo sapiens) + GTP-binding nuclear protein Ran (Homo sapiens) + Importin …; active means falling FRET ratio curve, often poorly fitted, with flat reads before Ran was added; inconclusive means other falling curves, or compound fluorescence or quenching; inactive means flat or rising ratio curve;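 further: potency means the concentration at half of the fitted maximal effect; % of control where 0% means no effect; nearly all actives have a fitted effect of over 45% in size; -100% = wells without RanGTP and RCC1; the record marks most hits as doubtful in a second field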
#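 Compounds sat 5 min at room temperature with 0.1 uM Rango biosensor plus 0.25 uM importin beta, then FRET pre-read. RanGTP-RCC1 (0.6 uM Ran, 2mM GTP, 0.2 uM RCC1) added for 45 min, and the CFP/YFP post-read measured blocked complex dissociation.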
# miR-21 FLuc = qHTS Assay for Modulators of miRNAs and/orActivators of miR-21; HeLa miR-21 FLuc reporter, luciferase, 48 h; Potency, µM (top dose mostly 38.3 µM), for the others: at the top dose reporter change, positive = more light; 340,000 tested, under 10 active; AID 2288, 2010; active = well fitted rising curve with a large enough effect; inconclusive = small, poorly fitted or top-dose-only effect; inactive = no such curve, though single readings can be large or run the other way;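 further: % of control where 0% means no effect; miR-21 action dims this reporter so a rising signal means less miR-21 action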
#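 HeLa miR-21-FLuc reporter line, endogenous miR-21; 2000 cells/well in DMEM/10% FBS; compound titration up to ~40uM final, 48 h, 37 degree Celsius; luciferase detection reagent, 15 min lysis, CCD luminescence.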
# * hit, by the source's call; ? = inconclusive; · = no result given; & = joins results of further samples; [ ] = remark or other dose.
smiles,Rango dissoc inh,Rango-impB inh,miR-21 FLuc,GLA inh pH 4.5
O=C(N/N=C/c1cccs1)c1cc(-c2cccc3ccccc23)n[nH]1,-6.4%,0.6%,-24.8%,-3.1
O=C(COC(=O)c1ccc(Br)o1)NC12CC3CC(CC(C3)C1)C2,-1.8%,-0.4%,·,·
Nc1ccc(-c2cn3cccnc3n2)cc1,-6.3%,1.0%,-30.5%,-0.8
CCOc1cc(/C=N/NC(=O)c2cccnc2)ccc1OCC(N)=O,0.7%,2.7%,6.1%,0.8
Cc1ccc(C(=O)N/N=C/c2cc(Br)ccc2O)cn1,?,?,11.6%,·
Cc1cc(C)c2[nH]c(=O)c(C(c3nnnn3CC3CCCO3)N3CCCC(C)C3)cc2c1 (stereo not drawn),-2.9%,-2.0%,-1.9%,4.5
CC(=O)c1cccc(NC(=O)N2CCC(c3ccc(C)cc3)C2)c1 (stereo not drawn),-5.4%,0.5%,-14.0%,1.5
CC(C)CC(=O)c1c(O)c(C=O)c(O)c2c1O[C@@]1(C)[C@@H](C2)C[C@H]2C[C@@H]1C2(C)C,-10.1%,1.7%,·,·
Cc1ccc(C)c(N(CC(=O)NC2CCCCC2)C(=O)c2snc(C(N)=O)c2N)c1,-6.6%,3.0%,-1.9%,·
Cc1ccnc(NC(=O)c2ccc(S(=O)(=O)N3CCC(C)CC3)cc2)c1,0.3%,-2.2%,·,·
CCCn1ncc(CN2CCC(n3nccc3NC(=O)c3ccccc3Cl)CC2)c1C,-10.3%,-0.3%,1.0%,·
COc1ccc(NC(=O)Nc2cccc(C(F)(F)F)c2)cn1,8.4%,0.1%,25.6%,2.2
Cc1cc(NC(=O)CS(=O)(=O)c2ccc(F)cc2)no1,0.4%,-1.0%,·,·
CCN(CC)c1ccc2c(Cl)cc(=O)oc2c1,1.8%,-1.5%,6.3%,-23.1
Oc1c(C2=NCCNC(C(F)(F)F)=C2)ccc2ccccc12,-19.2%,0.3%,-72.9%,-6.5
CC(C)(C)n1nnnc1C(c1cccs1)N(Cc1ccc(Cl)cc1)CC1CCCO1 (stereo not drawn),12.1%,-2.0%,19.0%,4.5
CCCCC1=NN2CCS(=O)(=O)N=C2S1,5.5%,-4.0%,0.9%,-13.8
O=C1NC(=O)/C(=C\c2ccc(OCc3cccc([N+](=O)[O-])c3)cc2)N1,-9.1%,0.4%,-5.3%,-27.5
COc1ccc(Cl)cc1S(=O)(=O)Nc1cccc(C(=O)O)c1,-9.1%,1.1%,1.1%,3.3
COc1ccc(N2CCN(S(=O)(=O)CCNC(=O)c3ccc(Br)o3)CC2)cc1,3.0%,1.5%,5.1%,·
CCCCNC(=O)N(O)C1N(/N=C/c2ccc(N(C)C)cc2)C(=S)SC1(C)C (stereo not drawn),?,?,-3.7%,·
O=[N+]([O-])c1ccccc1S(=O)(=O)n1cnc2ccccc21,2.9%,0.6%,-1.0%,9.2
Cc1ccc(-c2nnc(SCC#CCOC(=O)c3ccco3)o2)cc1,-9.4%,1.9%,-27.0%,-1.0
CC(=O)N(c1ccc(N(C(C)=O)S(=O)(=O)c2cccs2)cc1)S(=O)(=O)c1cccs1,-10.2%,-0.8%,0.4%,5.5
CC1Cc2ccccc2N1C(=O)Cn1cnc2ccccc21 (stereo not drawn),0.0%,0.4%,3.6%,0.5
Cc1ccc(Cl)cc1NC(=O)Nc1c(C)n(C)n(-c2ccccc2)c1=O,-4.1%,0.0%,1.1%&-1.3%,·
Cc1ccc(-n2c(COc3ccccc3)n[nH]c2=S)cc1,14.7%,-2.0%,2.0%,1.3
CC(C)(C)c1nnc(SCC(=O)c2ccccc2)n(N)c1=O,4.6%,1.6%,-42.7%,10.1
N#CC1=C(SCc2ccccc2)NC2=C(C(=O)CCC2)C1c1ccc2c(c1)OCO2 (stereo not drawn),6.0%,-0.9%,4.2%,-17.2
CCC(C)(CC(=O)N(C)CCC#N)c1ccccc1 (stereo not drawn),0.2%,0.3%,-5.1%,3.0

# 3 of the compounds above, with values ahead of the structure:
Rango dissoc inh | Rango-impB inh | miR-21 FLuc | GLA inh pH 4.5 | Molecule
? | ? | 11.6% | · | Cc1ccc(C(=O)N/N=C/c2cc(Br)ccc2O)cn1
-2.9% | -2.0% | -1.9% | 4.5 | Cc1cc(C)c2[nH]c(=O)c(C(c3nnnn3CC3CCCO3)N3CCCC(C)C3)cc2c1 (stereo not drawn)
-5.4% | 0.5% | -14.0% | 1.5 | CC(=O)c1cccc(NC(=O)N2CCC(c3ccc(C)cc3)C2)c1 (stereo not drawn)

# Going on with the list.
smiles,Rango dissoc inh,Rango-impB inh,miR-21 FLuc,GLA inh pH 4.5
Cc1ccc2nc(SCC(=O)Nc3ccc(F)cc3F)[nH]c2c1,0.5%,3.4%,-23.1%,4.2
Cc1ccccc1C(=O)N1CCC(C(=O)Nc2cc(C(F)(F)F)ccc2N2CCCC2)CC1,4.4%,5.5%,·,·
Cc1ccc(CONC(=O)c2ccc(Cl)cc2)cc1,-7.3%,3.2%,·,·
CCOC(=O)c1nn2c(C(F)(F)F)cc(-c3ccc(OC)cc3)nc2c1Br,-11.7%,0.1%,1.0%,·
O=C(NNC(=S)Nc1ccccc1)NNC(=S)Nc1ccccc1,-5.4%,-1.4%,1.0%,6.0
O=C1CC(N2CCN(c3ccccc3O)CC2)C(=O)N1Cc1ccccc1 (stereo not drawn),0.7%,2.2%,-0.7%,-0.3
O=C1OC2(c3ccccc31)c1ccccc1-c1ccccc12,-2.8%,-0.9%,·,·
COC(=O)c1ccc(S(=O)(=O)NCc2ccco2)o1,8.5%,3.3%,-1.2%,-4.2
COC(=O)CCC(=O)N(C)CC1CCCN(CCc2cccc(C(F)(F)F)c2)C1 (stereo not drawn),-10.0%,-6.6%,-3.6%,·
CCCc1nc2sc3c(c2c(=O)n1NC(=O)CCC(=O)OC)CCCC3,-9.9%,5.9%,-0.8%,-8.0
CCOC(=O)c1[nH]c(C)c(CN(Cc2ccco2)C(=O)C(F)(F)F)c1C,-10.3%,6.8%,16.8%,-5.0
O=C(CCc1nc2ccccc2c(=O)[nH]1)OCC(=O)N1CCc2ccccc21,-3.5%,-4.0%,-2.6%,-5.7
O=[N+]([O-])c1ccc(NN=Cc2cccc3ccccc23)cc1,?,?,·,·
O=C(NNC(=O)c1ccc(F)cc1)c1ccncc1,-19.7%,?,-4.4%,·
COc1ccc(C(=O)n2c(SC)nc3cc4c(cc32)OCCO4)cc1,-1.1%,6.7%,-28.0%,1.1
Cc1cccc(C(=O)OC(C)C(=O)Nc2ccc(S(=O)(=O)N3CCCC3)cc2)c1O (stereo not drawn),9.8%,0.8%,·,·
CCc1ccc(N(C(=O)c2csnn2)C(C(=O)NC2CCCC2)c2cccnc2)cc1 (stereo not drawn),7.7%,?,2.4%,·
CC1CN(Cc2ccccc2)c2nc3c(c(=O)[nH]c(=O)n3C)n2C1 (stereo not drawn),0.0%,4.6%,-8.0%,-1.0
COc1ccc(CNC(=O)CN2C(=O)NC3(CCCCCC3)C2=O)cc1,-3.4%,-2.3%,·,·
CC1=CC(C)(C)N(C(=O)CN2C(=O)CCC2=O)c2ccccc21,4.3%,1.0%,0.7%,4.5
CC(/C=C/c1ccccc1)=N/NC(=O)CNC(=O)c1ccc2c(c1)OCO2,25.2%,-3.6%,1.6%,3.0
CN(C)CCNC(=O)C(=O)C1C(=O)Nc2ccccc21 (stereo not drawn),·,·,-1.1%,-6.2
C=CCNc1nc(-c2cccc(OC)c2O)nc2ccccc12,1.0%,-0.2%,-1.0%,2.0
CCOC(=O)c1c(-c2ccc(-c3ccccc3)cc2)csc1NC(=O)CCN1CCOCC1,1.2%,-4.3%,-2.6%,?
COc1ccc(N2CCN(C(CNS(=O)(=O)c3cccs3)c3cccnc3)CC2)cc1 (stereo not drawn),5.1%,2.2%,-0.3%,-4.8
CC(=O)c1c(C)[nH]c(C(=O)OC(C)C(=O)Nc2cc(S(=O)(=O)N3CCCCC3)ccc2Cl)c1C (stereo not drawn),0.2%,0.9%,-14.8%,-11.8
CC(C)CCN=CC1=C(O)CC(c2ccccc2)CC1=O (stereo not drawn),8.8%,-3.4%,-2.2%,6.5
CN1CCCC1CCNS(=O)(=O)c1ccc(Br)cc1 (stereo not drawn),-10.4%,-2.0%,-0.8%,1.4
CCc1c(C)nc2ncnn2c1Nc1ccc(C)cc1,-13.4%,0.8%,-11.4%,·
Cc1nc2c(n1C1CCCCC1)C(=O)c1ccccc1C2=O,0.2%,-2.8%,-5.2%,8.9

# New compounds follow
smiles,Rango dissoc inh,Rango-impB inh,miR-21 FLuc,GLA inh pH 4.5
CCOc1ccc(C/C(N)=N/n2cnnc2)cc1,0.1%,1.4%,0.7%,-9.2
O=C(CN(CCO)c1ccccc1)NC12CC3CC(CC(C3)C1)C2,2.0%,-3.1%,-26.4%,-15.1
CCSc1ccccc1C(=O)NCc1cccnc1,-14.9%,-5.6%,-0.8%,5.2
COc1ccccc1N1CCN(C(=O)c2cc(=O)c3cc(C)cc(C)c3o2)CC1,-6.4%,0.3%,22.2%,·
Cc1ccc(/C=N/N2CCN(C3c4ccccc4-c4ccccc43)CC2)s1,-19.9%,?,-2.2%,3.4
COc1cccc(N2CCN(Cc3cccnc3)CC2)c1,1.2%,-1.6%,-6.0%,7.2
CCN(CC)CCNS(=O)(=O)c1ccc2c3c(cccc13)C(=O)N2,?,?,4.7%,·
Cc1cccc(C(=O)NCC2CCN(C(=O)c3cccc(C)c3)CC2)c1,-13.0%,-0.7%,1.0%,·
O=C(N/N=C/c1cc(Br)cs1)c1c[nH]c2ccccc12,-7.4%,4.8%,-37.1%,-0.8
O=S1(=O)CCOCCCN1Cc1cccc(F)c1,1.4%,0.4%,-0.6%,·
CCOC(=O)C(C)Sc1ccc2nnc(CCNS(=O)(=O)c3ccccc3)n2n1 (stereo not drawn),-0.2%,3.5%,-1.7%&-3.5%,3.9[21.1 µM]
Cc1cccc(S(=O)(=O)NNC(=O)c2sc(C)nc2C)c1,2.1%,0.5%,-3.4%,1.7
CC(C)C(CO)NC(=O)CC(=O)NC(CO)C(C)C (stereo not drawn),-2.6%,-6.5%,-4.9%,2.9
Cc1cc(C)c(NS(=O)(=O)c2ccc(NC(=O)CCC(=O)O)cc2)c(C)c1,-22.0%,2.7%,-0.6%,-7.3
COCCNC(=O)c1ccc(Cl)c(Cl)c1,0.6%,1.1%,-3.8%,6.3
CN(C)S(=O)(=O)c1ccc(Cl)c(NC(=O)c2ccncc2)c1,-12.1%,-2.5%,-0.3%,-5.0
O=[N+]([O-])c1cccc(-c2ccc(/C=N/Nc3nc(N4CCCCC4)nc(N4CCCCC4)n3)o2)c1,0.0%,-0.8%,5.9%,-4.3
O=C(Cc1ccc(Cl)cc1)NCC(=O)N1CCCCC1,0.3%,5.3%,-4.6%,1.3
CC(C)Oc1ccc(C(=O)N(Cc2ccco2)C2CCS(=O)(=O)C2)cc1 (stereo not drawn),1.5%,-7.2%,-16.3%,-8.4
COc1ccc(-c2coc3cc(OC)cc(OC)c3c2=O)cc1,-10.0%,-2.0%,-51.3%,0.2&-11.2
O=C1[C@H]2[C@@H](/C=C/c3ccccc3)N3C(=O)CN(CC4CC4)C(=O)[C@@]3(Cc3ccccc3)[C@H]2C(=O)N1c1ccccc1,15.2%,0.0%,14.4%,·
COc1cccc(NC(=O)C2CC(=O)N(Cc3ccco3)C2)c1 (stereo not drawn),1.4%,-0.1%,·,·
CCOc1ccc(Nc2nnc(Cc3ccc(OC)cc3)c(=O)[nH]2)cc1,-2.8%,3.0%,-0.2%,6.0

# A portion of the library (hit frequency here may not be typical).
